Screening data as filed in PubChem.
MARV entry inh: Marburg virus entry inhibition; Marburg virus pseudotyped entry inhibition, cell reporter; control for the full effect not named in the record; about a third of the inactives were read at about 46 µM; Potency, µM (series often up to 37.8 µM), inactives show at the top dose activity change, negative = inhibition, usual class: inhibitors; actives 1.8% (n = 300,000); AID 540276; active = well fitted inhibition curve with a large enough effect; inconclusive = small, poorly fitted or top-dose-only effect, or effect the other way; inactive = flat fitted curve, though single readings scatter; tested in HEK293 cells; about a fifth of its hits are not listed in these tables; further: on the % scale 0 is the no-effect control and ±100 the full control effect; luciferase read-out
RE007 growth inh: less growth of the S. pombe RE007 Vpr strain; S. pombe RE007 Vpr strain, BacTiter-Glo ATP luminescence, 24 h; control for the full effect not named in the record; Potency, µM (top dose mostly 92.2 µM), without a hit: at the top dose activity change, negative = less growth; actives 0.21% (n = 360,000); AID 651644; active = well fitted falling curve with a large enough effect; inconclusive = small, poorly fitted or top-dose-only effect; inactive = no such curve, though single readings can be large or run the other way;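 further: on the % scale 0 is the no-effect control and ±100 the full control effect; nearly all actives have a fitted effect of over 50% in size; the assay follows cell death caused by Vpr and the record does not say whether a fall means rescue or toxicity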
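Fission yeast strain RE007, carrying one chromosomally integrated HIV-1 vpr copy, was seeded at OD 0.01 in PMG+AL medium with 23 nL pinned compound. After 24 h at 30 °C and 99% humidity, viability was read by BacTiter-Glo luminescence.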
LASV entry inh: blocks Lassa virus binding to or entry into cells | Lassa virus pseudotype entry inhibition, cell reporter; control for the full effect not named in the record | Potency, µM (highest dose often 37.9 µM), for inactives: at the highest dose activity change, negative = inhibition, most hits filed as inhibitors | actives 1.2% (n = 300,000); active means well fitted inhibition curve with a large enough effect; inconclusive means small, poorly fitted or top-dose-only effect, or effect the other way; inactive means flat fitted curve, though single readings scatter; tested in HEK293 cells; further: on the % scale 0 is the no-effect control and ±100 the full control effect; nearly all actives have a fitted effect of over 50% in size; luciferase read-out
StopGo reporter: lowers the luciferase signal of an FMDV 2A StopGo reporter | human cells with a luciferase reporter of 2A StopGo recoding; control for the full effect not named in the record | Potency, µM (titrated, usually from 57.9 µM), for the others: top-dose signal change, negative = less light | actives 1.2% (n = 410,000); active = well fitted falling curve with a large enough effect; inconclusive = small, poorly fitted or top-dose-only effect; inactive = no such curve, though single readings can be large or run the other way; tested in HEK293T cells; further: on the % scale 0 is the no-effect control and ±100 the full control effect; nearly all actives have a fitted effect of over 45% in size; luciferase light after 4 h
SARS PLP yeast: inhibitors of SARS-CoV papain-like protease in yeast. S. cerevisiae expressing SARS-CoV PLpro, growth rescue; control for the full effect not named in the record. Potency, µM (series often up to 32.9 µM), without a hit: top-dose activity, positive = growth rescue. actives 0.19% (n = 330,000); further: 0% is about no effect; nearly all actives have a fitted effect of over 55% in size; growth read by luminescence after 48 h
NS1 inh: inhibitors of influenza NS1 protein function. S. cerevisiae slowed by influenza A NS1, growth recovery by OD600. Potency, µM (top dose mostly 46.1 µM), for the others: top-dose activity, positive = more growth. actives 0.4% (n = 270,000). AID 2326; further: actives are rising curves; nearly all actives have a fitted effect of over 50% in size
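A cell-based growth assay was used: compounds that relieve NS1-induced slow growth of budding yeast raise OD600. Assay medium was yeast nitrogen base with ammonium sulphate and -URA supplement, pH 6.0, with 2% galactose.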
Cruzain Triton: cruzain (T. cruzi) inhibition with detergent; actives 0.43% (n = 200,000); Potency, µM, for inactives: max response, negative = inhibition, hits mostly inhibitors; purified cruzain, Z-FR-AMC fluorescence, 0.01% Triton; P25779; AID 1478; active means well fitted curve in the direction sought with a large enough effect; inconclusive means small, poorly fitted or top-dose-only effect, or another doubt; inactive means no such curve, though single readings can be large; an effect the other way counts as inactive or inconclusive;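 further: plate controls were neutral wells for no effect and buffer without enzyme for full effect; nearly all actives have a fitted effect of over 40% in size; top concentration of the series not given in the record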
Target sequence (P25779 123-467 limits assumed): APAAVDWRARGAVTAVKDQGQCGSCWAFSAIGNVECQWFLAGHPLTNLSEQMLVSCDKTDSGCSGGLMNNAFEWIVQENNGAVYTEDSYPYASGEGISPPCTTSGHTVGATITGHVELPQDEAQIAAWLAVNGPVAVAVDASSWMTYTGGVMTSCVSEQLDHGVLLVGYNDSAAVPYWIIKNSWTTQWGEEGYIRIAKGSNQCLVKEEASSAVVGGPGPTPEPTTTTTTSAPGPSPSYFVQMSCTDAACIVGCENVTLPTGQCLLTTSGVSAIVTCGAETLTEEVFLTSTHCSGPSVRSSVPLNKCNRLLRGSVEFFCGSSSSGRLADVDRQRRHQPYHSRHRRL
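Z-FR-AMC hydrolysis (2 uM substrate) by cruzain (1.5 nM) monitored kinetically at ex 360/em 450 nm after 15 min room-temperature compound exposure; 0.01% Triton X-100, pH 5.5, 5 mM DTT.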
Cruzain noTriton: inhibitors of Trypanosoma cruzi cruzain without detergent; P25779; purified cruzain, Z-FR-AMC fluorescence, no detergent; Potency, µM, without a hit: max response, negative = inhibition, usual class: inhibitors; actives 2.3% (n = 200,000); AID 1476; active means well fitted curve in the direction sought with a large enough effect; inconclusive means small, poorly fitted or top-dose-only effect, or another doubt; inactive means no such curve, though single readings can be large; an effect the other way counts as inactive or inconclusive;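 further: plate controls were enzyme without inhibitor for no effect and buffer without enzyme for full effect; nearly all actives have a fitted effect of over 40% in size; top concentration of the series not given in the record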
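Purified cruzain at 1.5 nM, pre-incubated 15 min with compound at room temperature in 100 mM sodium acetate pH 5.5, 5 mM DTT, 0.00005% Triton X-100. Reaction started with 2 uM Z-FR-AMC; AMC fluorescence increase over 60 s gives rate.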
* marks the source's active call; other numbers are inactive results; ? = inconclusive; · = not tested or not shown; [ ] = another dose, or the depositor's remark. Unless noted, the call rests on the fitted dose curve; in most records, active means well fitted rising curve with a large enough effect; inconclusive means small, poorly fitted or top-dose-only effect; inactive means no such curve, though single readings can be large or run the other way. Potency means the concentration at half of the fitted maximal effect.

SMILES | MARV entry inh | RE007 growth inh | LASV entry inh | StopGo reporter | SARS PLP yeast | NS1 inh | Cruzain Triton | Cruzain noTriton
CS(=O)(=O)N(CC(=O)N1CCOCC1)c1ccc(Cl)cc1 | · | 0% | · | -2% | 0% | 7% | · | ·
O=C(CCCCCNC(=O)N1CCn2c1nc1ccccc12)N[C@@H](Cc1ccccc1)C(=O)O | · | 3% | · | -16% | -2% | 5% | · | ·
CC(=O)N(CC1CCCO1)C1(C(=O)NC2CCCC2)CCCCC1 (stereo not given) | ? | -7% | 21% | 0% | 0% | 2% | 2.1% | 10%
CCCCC(=O)N(c1ccc(C)c(C)c1)C1C=CS(=O)(=O)C1 (stereo not given) | -11% | -2% | 15% | · | 13% | -5% | -0.6% | -4%
CC(C)CC(NC(=O)/C(=C\c1ccco1)NC(=O)c1ccco1)C(=O)O (stereo not given) | · | -9% | · | -10% | 4% | 7% | · | ·
CC(=O)N1CCCc2cc(S(=O)(=O)N3CCCC(C(=O)NCc4ccc(Cl)cc4)C3)ccc21 (stereo not given) | · | 4% | -26%[46.1 µM] | ? | 2% | -10% | -2.7% | ?
CCOc1ccc(NC(=O)C2CC(=O)NC(=Nc3ccc(Cl)c(Cl)c3)S2)cc1 (stereo not given) | -5%[46.1 µM] | · | · | -3% | · | · | ? | 10µM*
Cn1c(=O)[nH]c(=O)c2c1nc(N1CCCCCC1)n2CCSc1nc2ccccc2[nH]1 | -15% | 2% | -2% | ? | 7% | -5% | 1.6% | 0%
O=C(CCc1nnc(COc2ccccc2)o1)NCc1ccccc1 | 2%[46.1 µM] | 14% | 29%[46.1 µM] | -5% | 0% | 7% | · | ·
Cc1nnc2n(Cc3ccccc3)c(=O)c3c4c(sc3n12)CN(Cc1ccccc1)CC4 | 0% | · | · | · | 5% | 4% | 4.1% | -10%
COc1ccc(NC(=O)C2C3C=CC(C3)C2C(=O)NCc2ccco2)c(OC)c1 (stereo not given) | ? | 0% | -1% | 2% | 19% | 29% | -2.0% | 12%
O=C(Nc1nn(Cc2ccc(Cl)cc2)cc1Br)c1ccc(COc2ccccc2Cl)o1 | ? | -6% | ? | ? | 0% | 18% | -2.1% | ?
Cc1ccc(Oc2ncccc2NC(=O)CC2(CC(=O)O)CCCC2)c2c1CCC2 | -12%[14.2 µM] | -14% | 17% | -21% | 2% | -2% | · | ·
O=C(NCC(c1ccco1)S(=O)(=O)c1cccs1)c1ccc(F)cc1 (stereo not given) | · | · | -22%[46.1 µM] | 26% | · | · | 2.3% | 8%
CCCc1ccc(OCC(=O)NNC(=S)NC(=O)c2ccco2)cc1 | ? | ? | -29% | ? | -16% | -231% | -1.0% | -11%
Cc1ccc(NC(=O)N(C2CCCCC2)C(C)c2cccnc2)cc1C (stereo not given) | · | -14% | · | -4% | -3% | -5% | -1.1% | -11%
CCN1C(C)=C(C)S/C1=C1\SC(=S)N(NC(C)=O)C1=O | 9%[46.1 µM] | -9% | -20%[46.1 µM] | 3% | -1% | 0% | · | ·
COc1ccc(/C=N/Nc2nnc(Cc3ccc(OC)c(OC)c3)c(=O)[nH]2)cc1 | -52% | 16% | -3% | -1% | 15% | 3% | -8.4% | -1%
COc1cccc2cc(-c3nnc(SCC(=O)Nc4ccc(NC(C)=O)cc4)n3C)oc12 | -6%[46.1 µM] | 2% | -35%[46.1 µM] | -18% | -1% | -1% | · | ·
CC(=O)NCCC(=O)Nc1cc(S(=O)(=O)N2CCCCC2)ccc1N1CCN(C)CC1 | -13% | -2% | 8% | -20% | 2% | · | · | ·
COc1cc(OC)cc(-n2c(=O)c3sccc3n(Cc3cc(=O)n4c(C)cccc4n3)c2=O)c1 | ? | · | 1%[46.1 µM] | -3% | · | · | -3.0% | -4%
COc1ccccc1NC(=O)C1=C(C)Nc2ncnn2C1c1ccc[nH]1 (stereo not given) | · | · | 2%[46.1 µM] | -12% | · | · | -5.4% | -3%
Cc1ccccc1-c1nc(NC(=O)CSc2ncnc3sc4c(c23)CCCC4)ns1 | 8%[46.1 µM] | · | 8%[46.1 µM] | -9% | · | · | -1.0% | 9%
CC(=O)Nc1c(C(=O)N2CCOCC2)cnn1-c1ccc(C)c(C)c1 | -1%[46.1 µM] | -2% | 10% | -10% | 5% | 1% | 4.0% | 3%
COc1cc(NC(=O)CN(C)S(=O)(=O)c2ccc3c(c2)CC(C)N3C(C)=O)cc(OC)c1 (stereo not given) | · | -5% | · | ? | 3% | 9% | · | ·
Cc1ccc(C(=O)CC2SC(N)=NC2=O)cc1 (stereo not given) | -12% | 8% | 19% | · | -2% | 5% | -3.0% | -3%
CCC(=O)N(Cc1cc(=O)[nH]c2ccccc12)c1ccc(C)cc1C | · | 4% | · | -17% | -3% | 3% | · | ·
CCOc1cc(C(=O)Nc2cccc3ncccc23)cc(OCC)c1OCC | ? | -6% | -18% | -19% | 0% | 3% | 2.9% | 25%
CCOC(=O)CSc1nc2cc(C(=O)NCC3CCCO3)ccc2c(=O)n1Cc1ccco1 (stereo not given) | 12% | 11% | 17% | -20% | 16% | -3% | -1.2% | ?
COc1ccccc1Cn1c(=S)[nH]c2cc(C(=O)NCC(OC)OC)ccc2c1=O | · | 12% | · | -22% | 1% | 1% | · | ·
CSc1ccc(Cc2ccc(Cl)cc2Cl)nn1 | ? | 8% | 4% | 30%[activator] | -7% | -16% | -4.9% | 3%
COc1ccc(N2CCN(CCNC(=O)CCS(=O)(=O)c3cccc4nsnc34)CC2)cc1 | 8% | · | -2% | · | 2% | 12% | -10% | -8%
C=CCNC(=S)NNC(=O)CCC(O)COCCC(C)C (stereo not given) | 9%[46.1 µM] | -5% | 11% | 6% | 1% | · | · | ·
COC(=O)c1ccccc1OCCOc1ccccc1C(=O)OC | 11% | -1% | 5% | 3% | 8% | 0% | -2.6% | -9%
CC(NC(=O)COC(=O)c1c[nH]c2ccccc12)c1ccccc1 (stereo not given) | 13% | 21% | 8.9µM* | -20% | 0% | · | · | ·
NC(=O)c1cc(NC(=O)CCCc2nc3ccccc3s2)cc(C(N)=O)c1 | -2%[46.1 µM] | 0% | 1% | -10% | -1% | 2% | · | ·

Part of the list above in order of molar mass, largest number first.
SMILES | MARV entry inh | RE007 growth inh | LASV entry inh | StopGo reporter | SARS PLP yeast | NS1 inh | Cruzain Triton | Cruzain noTriton
CCOc1cc(C(=O)Nc2cccc3ncccc23)cc(OCC)c1OCC | ? | -6% | -18% | -19% | 0% | 3% | 2.9% | 25%
CCC(=O)N(Cc1cc(=O)[nH]c2ccccc12)c1ccc(C)cc1C | · | 4% | · | -17% | -3% | 3% | · | ·
CC(NC(=O)COC(=O)c1c[nH]c2ccccc12)c1ccccc1 (stereo not given) | 13% | 21% | 8.9µM* | -20% | 0% | · | · | ·

Remaining list, next part.
SMILES | MARV entry inh | RE007 growth inh | LASV entry inh | StopGo reporter | SARS PLP yeast | NS1 inh | Cruzain Triton | Cruzain noTriton
CCCCc1nc(Cl)c(C#N)c2c1CCCC2 | -9% | 7% | 11% | -23% | -3% | 1% | -3.8% | -9%
COc1ccc2nc(Nc3nc4ccc(NC(C)=O)cc4s3)sc2c1 | ? | -11% | ? | 0% | 1% | -2% | -15% | 23%
CCC(=O)N1CCN(c2ccc(NC(=O)c3cc4ccccc4o3)cc2Cl)CC1 | 11µM* | -13% | ? | 8.9µM* | -19% | -2% | -11% | ?
Cc1cc(C)c2c(c1)c1nnc(SCCN3CCOCC3)nc1n2C | · | -3% | · | -11% | -1% | 3% | · | ·
CN(C(=O)c1ccccc1Br)C1CCS(=O)(=O)C1 (stereo not given) | -13%[46.1 µM] | 4% | -2% | -4% | -5% | · | · | ·
COc1ccc(NC(=O)c2cc3c(=O)n(C)c4ccccc4c3s2)cc1OC | ? | 6% | 0% | -5% | 2% | · | · | ·
O=C1CCCN1CCC(=O)N1CCCC(N2CCN(c3ccccc3F)CC2)C1 (stereo not given) | -7% | -18% | ? | 20% | -2% | 10% | · | ·
Cc1cccc(OC(=O)c2sc(Cl)nc2C)c1 | -8% | -26% | 6% | -12% | -3% | -1% | -3.4% | -2%
COc1cccc(CNC(=O)c2nn(-c3ccccc3Cl)nc2CO)c1 | ? | · | 15%[46.1 µM] | -20% | · | · | -2.0% | 3%
O=C(CN1CCOCC1)Nc1c2c(nc3c1CCC3)CCC2 | 17% | -8% | ? | -9% | 3% | -4% | 2.6% | -14%
Cc1ccc(C(=O)N/C(=C/c2cccs2)C(=O)N2CCCCCC2)cc1 | 2% | -1% | 2% | · | -5% | -4% | -6.7% | 6%
CC1CC(=O)Nc2ccccc2N1S(=O)(=O)c1cccc(F)c1 (stereo not given) | 20%[46.1 µM] | -17% | 6%[46.1 µM] | 70%[activator] | 0% | -1% | · | ·
COC(=O)c1cc(-c2c(C)oc3cc(O)ccc3c2=O)c(C)o1 | 4% | 1% | 9% | -7% | -1% | 0% | -0.9% | -11%
O=C(NCC(c1cccnc1)N1CCN(c2ccc(F)cc2)CC1)c1ccc(F)cc1 (stereo not given) | ? | 8% | ? | ? | -3% | -6% | 10% | 0%
O=C(NCc1ccccc1)c1ncn[nH]1 | · | -4% | · | 8% | 2% | 2% | · | ·
COc1ccc(CNC(=O)CN(C(=O)c2csnn2)c2cccc(F)c2)cc1 | 6%[46.1 µM] | -1% | 4% | 1% | 10% | 8% | · | ·
C=CCOc1c(CNc2ccc(S(N)(=O)=O)cc2)cccc1OC | -15% | 1% | 0% | -26% | 10% | 7% | -2.6% | -1%
O=C(CSc1nc2ccccc2n1-c1ccccc1)Nc1ncc(Cl)cc1Cl | 1.1µM* | 12% | 2.5µM* | -7% | -11% | 12% | -0.8% | -2%
CCN1C(=O)C(=Cc2cc(C)n(C3CC3)c2C)C(=O)N(CC)C1=S | 5% | -20% | 9% | -4% | 20% | 4% | -5.1% | 2%
O=C(COc1ccccc1)Nc1ccc(S(=O)(=O)NCc2ccco2)cc1 | ? | 12% | 23µM* | 38%[activator] | 6% | -5% | -4.9% | 7%
